# Screening results deposited in PubChem BioAssay by several laboratories.
# RecA splice inh – blocks M. tuberculosis RecA intein splicing | cell-free RecA intein splicing, fluorescence | P9WHJ3 | 290,000 tested, 0.75% active | inhibition, %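 (about 9 µM by stock and volumes)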; in the data active = inhibition above about 30%;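 note: 0% = vehicle wells and 100% = reference inhibitor control wells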
# Target sequence (P9WHJ3 whole entry, looked up, canonical isoform): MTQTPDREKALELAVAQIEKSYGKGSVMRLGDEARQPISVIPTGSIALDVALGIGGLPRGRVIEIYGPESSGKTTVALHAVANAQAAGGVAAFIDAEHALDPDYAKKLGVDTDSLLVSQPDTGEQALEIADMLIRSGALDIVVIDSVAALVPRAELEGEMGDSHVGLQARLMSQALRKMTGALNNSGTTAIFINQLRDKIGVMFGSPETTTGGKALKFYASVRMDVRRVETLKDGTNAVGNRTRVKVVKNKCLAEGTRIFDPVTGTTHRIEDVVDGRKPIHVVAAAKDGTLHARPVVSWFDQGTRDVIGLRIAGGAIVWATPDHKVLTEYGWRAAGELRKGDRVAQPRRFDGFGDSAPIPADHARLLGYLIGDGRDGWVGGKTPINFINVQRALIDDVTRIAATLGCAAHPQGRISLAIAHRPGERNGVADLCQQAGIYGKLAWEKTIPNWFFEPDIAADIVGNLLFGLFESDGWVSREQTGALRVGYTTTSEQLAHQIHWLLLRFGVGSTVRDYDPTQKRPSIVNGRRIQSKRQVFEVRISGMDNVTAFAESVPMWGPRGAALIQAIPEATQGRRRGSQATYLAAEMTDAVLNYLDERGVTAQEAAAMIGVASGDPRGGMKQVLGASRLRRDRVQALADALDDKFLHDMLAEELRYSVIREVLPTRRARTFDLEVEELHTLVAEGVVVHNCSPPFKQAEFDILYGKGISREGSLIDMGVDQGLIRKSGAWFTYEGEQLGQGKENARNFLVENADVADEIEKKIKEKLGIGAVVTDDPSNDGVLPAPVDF
# Mtb bLac sens – beta-lactam sensitization of Mtb H37Rv. M. tuberculosis H37Rv growth with meropenem, percent inhibition; hits of this screen are not shown here. AID 434955. inhibition, % at 25 µM. 330,000 tested, 0.27% active;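 active = about 74% or more and at least 40 points above the plate without the antibiotic, then above 30% in a dose series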;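 note: growth measured after seven days incubation then overnight dye step; 0% = bacteria only wells and 100% = bacteria with antibiotic; twin plates without the antibiotic show which effects depend on it; some results filed as inactive read as strong as hits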
# YopH PTP inh – blocks Yersinia enterocolitica YopH tyrosine phosphatase; inhibition, %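 (about 10 µM by stock and volumes)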; 140,000 tested, 0.16% active; fluorescence Ex485/Em525;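 active = inhibition of 50% or more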;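 note: controls were vehicle for no effect and minimum signal wells for full effect; inactives centre near -20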
# Arbovirus inh – blocks arbovirus infection; arbovirus infection cell-based antiviral screen; inhibition, % at 10 µM; 200,000 tested, 0.37% active; AID 1251;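 active = inhibition from about 30%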;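 note: bluetongue infection of BSR cells; cell survival read as ATP light after 72 h; 0% = infected wells without compound and 100% = uninfected wells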
# Mtb growth – M. tuberculosis H37Rv growth inhibitors, H37Rv strain (AID 1626). M. tuberculosis H37Rv growth inhibition; higher % means a stronger effect. one-dose inhibition, % at 10 µM; IC50 in µM for titrated hits. 220,000 tested, 0.95% active;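 active = confirmed in a dose series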;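 note: bacteria incubated seven days before Alamar blue readout; 0% = bacteria only wells and 100% = bacteria with antibiotic wells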
# Arbovirus inh repeat – recorded beside Arbovirus inh, whose call it bears; inhibition, %; measured here: 10K subset replicate screen; many hits read low in the repeat;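 first of two repeat runs on a subset; 0% = infected and 100% = uninfected wells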
# An asterisk follows results filed as active; i = inactive; · = no result given. The list is partial; the hit share may differ from the screen's.
SMILES,RecA splice inh,Mtb bLac sens,YopH PTP inh,Arbovirus inh,Mtb growth,others
COC(=O)Cn1c2ccccc2c2nc(=O)cc(C)n21,-3.9,-1,·,-3,0%,
O=C(NCCc1ccc(Cl)cc1)c1ccc2nccnc2c1,1.0,6,·,·,·,
COc1cc(/C=C2/C(=N)N3C(=NC2=O)SN=C3S(=O)(=O)C(C)C)ccc1OS(=O)(=O)c1ccccc1,15,4,·,·,·,
COc1ccc(C2c3c(noc3C)CC(C)(O)C2C(C)=O)cc1 (centres undefined),1.2,7,·,·,-12%,
c1nc(N2CCOCC2)c2c3c(sc2n1)CCCC3,5.4,1,11,12,1%,
COc1cc(/C=C(\C#N)C(=O)NCC2CCCO2)ccc1O (centres undefined),1.8,-4,-3,0,2%,
Cc1cccc(C(=O)NCC(=O)NCC(c2ccco2)N2CCCCC2)c1 (centres undefined),-1.2,-2,·,·,·,
COc1ccc([N+](=O)[O-])cc1NC(=O)COC(=O)C1CC1,-3.1,31,·,2,2%,
Cc1ccc(NC(=S)N(CCCN2CCOCC2)Cc2ccco2)cc1C,-2.5,-11,·,5,-6%,
COc1ccc(-c2nnc(SCC(=O)N3c4ccccc4Sc4ccccc43)o2)cc1,-2.6,4,-10,-9,8%,
CC(=O)Nc1cccc(NC(=O)C(=O)NCC(c2ccco2)N2CCc3ccccc3C2)c1 (centres undefined),1.5,-11,·,·,·,
C=CCn1c(=O)c2ccccc2n2c(SCC(N)=O)nnc12,-0.5,-1,-28,2,-5%,
COCc1cc(C)n(CC(=O)Nc2ccc(N3CCOCC3)c(Cl)c2)c(=O)c1C#N,-2.6,6,·,·,·,
Cc1ccc(C)c(C(=O)NCc2ccncc2)c1,1.8,-13,-15,7,1%,
Cc1ncc(CN2CCN(Cc3ccccc3)C(CCO)C2)s1 (centres undefined),2.1,6,·,1,0%,
COc1cc(C(=O)N2CCN(c3ccc(C)cc3C)CC2)cc(OC)c1OC,1.9,1,-21,-5,22%,Arbovirus inh repeat=-11
COCCNC(=O)CC(NS(=O)(=O)c1ccc(NC(C)=O)cc1)C(C)C (centres undefined),4.0,-1,-46,4,-6%,
COCCN1CCC(CNCc2cn[nH]c2-c2ccc(C)c(C)c2)C1 (centres undefined),2.0,0,·,-10,-4%,
CC(C)(C)N1CC(c2nc3ccccc3n2Cc2ccccc2)CC1=O (centres undefined),1.6,-1,3,-7,-8%,
O=C(Nc1ccccc1Cl)c1cccc(NC(=O)C2C3CC4OC(=O)C2C4C3)c1 (centres undefined),0.7,-4,-4,4,-2%,
CC(=O)c1cccc(NC(=O)C(OC(=O)c2ccccc2NS(=O)(=O)c2cccs2)c2ccccc2)c1 (centres undefined),-7.0,-2,-27,15,-1%,
CN(C)S(=O)(=O)N1CCCC(C(=O)c2ccc(-c3ccccc3)cc2)C1 (centres undefined),-2.8,2,·,-8,-4%,
Nc1cc(N)nc(SCc2cc(=O)oc3cc4c(cc23)CCC4)n1,1.9,55,-52,6,-1%,
CC(Nc1nc(N2CCNCC2)nc2ccccc12)c1ccccc1 (centres undefined),3.4,-3,·,-35,13%,
CC12CCC(c3nnc(SCC(=O)Nc4cccc5ccccc45)nc31)C2(C)C (centres undefined),1.2,8,-43,4,-4%,
# Remaining list, next part:
SMILES,RecA splice inh,Mtb bLac sens,YopH PTP inh,Arbovirus inh,Mtb growth,others
Cc1ccn2cc(CC(=O)O)nc2c1,-1.3,2,·,-1,-6%,
CCC(C)[C@H](NC(=O)NCCCc1ccccc1)C(=O)OC (some centres undefined),-2.7,-9,-1,-5,-3%,
O=C(C1CCCC1)N1CCCC(Nc2ccccc2)C1 (centres undefined),0.4,-3,·,·,·,
C=CCC(=O)NC(C)c1cnn(-c2ccccc2C)c1C (centres undefined),-0.6,-3,·,6,0%,
COc1ccc(S(=O)(=O)N(C)C2(C)CCS(=O)(=O)C2)cc1OC (centres undefined),-0.4,8,·,·,·,
CCOc1cc(C2C(C(=O)c3ccc(C)cc3)=C(C(=O)OC)Nc3nnnn32)ccc1O (centres undefined),4.6,-10,-8,8,-7%,
CCCN(Cc1ccccc1)C(=S)Nc1ccc(SC(F)F)cc1,10,·,·,-11,4%,
CN1C(=O)NC2C1N(S(C)(=O)=O)CCN2S(C)(=O)=O (centres undefined),1.7,-6,-31,3,0%,
Cc1cc2nnc(SCC(=O)N3CCN(c4ccccc4)CC3)n2c(N)n1,0.0,-10,2,9,6%,
CC(=O)c1sc2nc(SCC(=O)NCCc3ccccc3)[nH]c(=O)c2c1C,-2.2,-6,·,·,·,
COc1cccc(C(C(=O)NC2CCCCC2)N(C(=O)c2csnn2)C2CC2)c1 (centres undefined),-3.3,5,·,·,·,
COc1ccc(C(=O)CC(CC(=O)c2ccc(OC)cc2)C(=O)O)cc1,-0.9,-2,·,·,·,
CCOC(=O)N1CCN(C(=O)c2ccc(OC(C)=O)cc2)CC1,2.8,-3,·,-3,2%,
COC(=O)C1=C(C)N(c2ccc(F)c(Cl)c2)C(=O)C1,3.6,-4,35,2,-1%,
CC1=NN(c2ccc(C)cc2C)C(=O)C1C(c1cccc(O)c1)C1C(=O)N(c2ccc(C)cc2C)N=C1C (centres undefined),97*,-2,-17,3,1%,
Cc1ccccc1NC(=O)c1ccc2c(c1)N(C)CCS2,-4.7,-4,·,·,·,
Cc1nc(NC(=O)C2CC2)sc1C(=O)N1CCCCC1,-4.7,1,-14,9,-6%,
Cc1oncc1C(=S)Nc1ccccc1,-1.2,-7,-43,-2,-13%,
CCn1cc(C2=NOC(C(=O)Nc3cc(OC)c(Cl)cc3OC)C2)c(C)n1 (centres undefined),-1.4,0,-33,1,0%,
CCN(CC)C(=O)c1scc2c1OCCO2,-0.8,16,-26,0,7%,
CCCn1c(SCC(=O)N2c3ccccc3Sc3ccccc32)nc2c1c(=O)n(C)c(=O)n2C,4.6,12,18,-12,0%,
Cn1c(N)c(C(=O)c2ccc(Oc3ccccc3)cc2)c(=O)n(C)c1=O,-3.6,-6,-17,-5,2%,
COc1cc(NC(=O)c2ccccc2Cl)ccc1NC(=O)c1cccs1,0.5,30,·,8,17%,
COc1ccc(NC(=O)c2cccc(S(=O)(=O)N3CCCCCC3)c2)cc1,1.1,-2,·,·,·,
COc1ccc(OC)c(C(c2nnnn2C2CCCC2)N2CCc3ccccc3C2)c1 (centres undefined),13,-9,-23,-19,·,
# Next section
SMILES,RecA splice inh,Mtb bLac sens,YopH PTP inh,Arbovirus inh,Mtb growth,others
O=C(NCCn1cc(SCc2ccccc2F)c2ccccc21)c1c(F)cccc1F,0.4,-6,-10,-3,6%,
COc1ccc(/C=N/NC(=O)C(=O)NCc2cccnc2)cc1OC,-1.5,2,-40,5,-6%,
CNS(=O)(=O)c1cnccc1N1CCN(C)CC1,-0.6,-1,-23,5,-5%,
Cc1cccn2c(=O)c(/C=C(\C#N)C(=O)NC3CCS(=O)(=O)C3)c(N3CCC(C(N)=O)CC3)nc12 (centres undefined),i,-7,-8,-9,0%,
COc1ccc(NS(=O)(=O)c2cccc(C(=O)N/N=C/c3ccc(O)cc3)c2)cc1,-1.1,0,·,-6,-4%,
COC(=O)c1ccc(CSc2nnnn2-c2ccc(C)cc2C)o1,2.0,8,-27,0,12%,
CCCC(=O)Nc1ccc(C(=O)NN=C(C2CC2)C2CC2)cc1,-0.1,3,-8,7,-3%,
CCCn1c2c(c(O)c(C(=O)Nc3ncccc3C)c1=O)CCCC2,1.0,9,-43,-22,-8%,
O=C(O)c1cc(-c2ccc(O)cc2)nc2ccccc12,·,-6,-2,8,·,
CC(C)CC1NC(=O)N(CCCCN2C(=O)c3ccccc3C2=O)C1=O (centres undefined),-0.4,-5,·,2,-1%,
CCOC(=O)c1cc2n(c1C)-c1ccccc1C2=O,4.4,17,8,-2,-3%,
CS(=O)(=O)N(Cc1ccccc1)c1ccc(C(=O)NCC2CCCO2)cc1 (centres undefined),5.0,-14,10,9,-13%,
CCCC1(C(=O)OCC)NC(c2ccc(N(C)C)cc2)C2C(=O)N(c3ccc(OCC)cc3)C(=O)C21 (centres undefined),-3.1,-3,-42,1,-9%,
O=c1cccc(-c2ccccc2)[nH]1,1.4,-8,-6,11,-3%,
O=C(c1ccco1)N1CCN=C1SCc1c(F)cccc1Cl,2.9,-5,-26,-2,-5%,
Cc1ccccc1C(=O)Nc1ccnn1C1CCN(C2CCSCC2)CC1,-2.1,-14,·,·,·,
CC1=C(C(=O)OCc2ccccc2)C(c2cccc([N+](=O)[O-])c2)NC(=O)N1CCCCCC(=O)O (centres undefined),1.4,-1,-18,8,-9%,
O=C(CN1CCC(O)(c2cccc(F)c2)CC1)NCCc1c[nH]c2ccccc12,0.8,8,·,·,3%,
CN(C)CCO[C@@H](c1ccc(Cl)cc1)c1ccccn1,0.8,-3,·,·,·,
O=C(OCc1nnc(-c2ccccc2)o1)C1CCN(S(=O)(=O)c2cccs2)CC1,·,-8,-36,3,-3%,
Cc1ccc(N(C(=O)CNC(=O)c2ccco2)C(C(=O)NC2CCCC2)c2cccnc2)cc1 (centres undefined),-0.2,-3,·,·,·,
O=C(NC1CCCCCC1)c1cccc(N2CCCC2=O)c1,·,4,-119,6,6%,
Cc1ccc2c(c1)N(CC(=O)N(Cc1ccccn1)Cc1ccco1)C(=O)C(C(C)C)O2 (centres undefined),-4.7,1,-28,-9,0%,
COC(=O)C1C(c2ccccc2)C(C(=O)OCc2ccco2)C1c1ccccc1 (centres undefined),0.9,-2,-17,-5,0%,
Cc1cc2ccccc2c(=O)n1CC(=O)NCC(=O)N1CCCC1,-1.5,-3,-19,4,-3%,

# Part of the list above in order of number of heavy atoms, falling:
SMILES,RecA splice inh,Mtb bLac sens,YopH PTP inh,Arbovirus inh,Mtb growth,others
CCCC1(C(=O)OCC)NC(c2ccc(N(C)C)cc2)C2C(=O)N(c3ccc(OCC)cc3)C(=O)C21 (centres undefined),-3.1,-3,-42,1,-9%,
CC1=C(C(=O)OCc2ccccc2)C(c2cccc([N+](=O)[O-])c2)NC(=O)N1CCCCCC(=O)O (centres undefined),1.4,-1,-18,8,-9%,
Cc1ccc(N(C(=O)CNC(=O)c2ccco2)C(C(=O)NC2CCCC2)c2cccnc2)cc1 (centres undefined),-0.2,-3,·,·,·,
Cc1ccc2c(c1)N(CC(=O)N(Cc1ccccn1)Cc1ccco1)C(=O)C(C(C)C)O2 (centres undefined),-4.7,1,-28,-9,0%,
O=C(NCCn1cc(SCc2ccccc2F)c2ccccc21)c1c(F)cccc1F,0.4,-6,-10,-3,6%,
COc1ccc(NS(=O)(=O)c2cccc(C(=O)N/N=C/c3ccc(O)cc3)c2)cc1,-1.1,0,·,-6,-4%,
O=C(CN1CCC(O)(c2cccc(F)c2)CC1)NCCc1c[nH]c2ccccc12,0.8,8,·,·,3%,
CS(=O)(=O)N(Cc1ccccc1)c1ccc(C(=O)NCC2CCCO2)cc1 (centres undefined),5.0,-14,10,9,-13%,
CC(C)CC1NC(=O)N(CCCCN2C(=O)c3ccccc3C2=O)C1=O (centres undefined),-0.4,-5,·,2,-1%,
COc1ccc(/C=N/NC(=O)C(=O)NCc2cccnc2)cc1OC,-1.5,2,-40,5,-6%,
Cc1cc2ccccc2c(=O)n1CC(=O)NCC(=O)N1CCCC1,-1.5,-3,-19,4,-3%,
CCCC(=O)Nc1ccc(C(=O)NN=C(C2CC2)C2CC2)cc1,-0.1,3,-8,7,-3%,
O=C(NC1CCCCCC1)c1cccc(N2CCCC2=O)c1,·,4,-119,6,6%,
O=C(O)c1cc(-c2ccc(O)cc2)nc2ccccc12,·,-6,-2,8,·,
CCOC(=O)c1cc2n(c1C)-c1ccccc1C2=O,4.4,17,8,-2,-3%,
CNS(=O)(=O)c1cnccc1N1CCN(C)CC1,-0.6,-1,-23,5,-5%,
O=c1cccc(-c2ccccc2)[nH]1,1.4,-8,-6,11,-3%,

# The listing continues.
SMILES,RecA splice inh,Mtb bLac sens,YopH PTP inh,Arbovirus inh,Mtb growth,others
COc1cc2nc(CN(C)Cc3nc4ccccc4c(=O)[nH]3)[nH]c(=O)c2cc1OC,-6.9,88,-4,-7,-3%,
CC(C)C(=O)Nc1ccnc(-c2cccnc2)n1,-0.2,-5,-23,8,-8%,
Cc1cc(=O)[nH]c(SCn2nnc3ccccc3c2=O)n1,0.1,-6,-26,3,-14%,
Cc1ccc(NC(=O)CCNS(=O)(=O)c2ccccc2F)cc1S(=O)(=O)N1CCOCC1,1.5,-10,·,·,·,
COc1ccc(-c2nnc(SCC(=O)N3CCCC3)o2)cc1OC,-0.7,-5,41,·,-1%,
COc1cc(NC(=O)c2noc(C)c2[N+](=O)[O-])c(OC)cc1Cl,-0.3,-3,·,·,·,
CCS(=O)(=O)N1CCC(C(=O)N2CCOCC2)CC1,-0.2,-2,-16,12,1%,
CN1CCN(Cc2nc3cc(NC(=O)COc4ccc([N+](=O)[O-])cc4)ccc3n2C)CC1,6.4,-5,·,·,·,
